Source: PubChem
LASV entry inh: qHTS for Inhibitors of binding or entry into cells for Lassa Virus; AID 720533, 2013; 18,000 compounds, 4.1% hits; Lassa virus pseudotyped entry inhibition, cell-based qHTS; control for the full effect not named in the record; many of its hits are not listed in these tables; Potency, µM (titrated, usually from 49.2 µM), for the others: top-dose activity change, negative = inhibition, hits mostly inhibitors; active = well fitted inhibition curve with a large enough effect; inconclusive = small, poorly fitted or top-dose-only effect; inactive = no such curve, though single readings can be large or run the other way; tested in HEK293 cells; note: luciferase read-out
MARV entry inh: qHTS for Inhibitors of binding or entry into cells for Marburg Virus; Marburg virus pseudotype entry/binding inhibition, cell-based; control for the full effect not named in the record; many of its hits are not listed in these tables; Potency, µM (titrated, usually from 49.2 µM), for the others: at the top dose activity change, negative = inhibition, usual class: inhibitors; 18,000 compounds, 6.5% hits; AID 720532, 2013; active means well fitted inhibition curve with a large enough effect; inconclusive means small, poorly fitted or top-dose-only effect; inactive means no such curve, though single readings can be large or run the other way; tested in HEK293 cells; note: luciferase read-out
An asterisk follows results filed as active; ? = inconclusive; . = no result given; & = joins results of further samples; [ ] = remark or other dose. % is set by controls: 0 for no effect and ±100 for the full control effect; potency is the fitted concentration of half-maximal effect.

SMILES | LASV entry inh | MARV entry inh
C=C(C)CN1CC[C@@]23c4c5ccc(O)c4O[C@H]2c2[nH]c4ccccc4c2C[C@]3(O)[C@@H]1C5 | ? | 22µM*
COC1=C(OC)C(=O)C(C/C=C(\C)CC/C=C(\C)CC/C=C(\C)CC/C=C(\C)CC/C=C(\C)CC/C=C(\C)CC/C=C(\C)CC/C=C(\C)CC/C=C(\C)CCC=C(C)C)=C(C)C1=O | -3%&-6% | 19%&5%
CC(C)(CS)C(=O)N1CCC[C@H]1C(=O)O | -2%[17.8 µM] | 17%[17.8 µM]
N[C@@H](Cn1cc(I)c(=O)n(Cc2ccc(C(=O)O)cc2)c1=O)C(=O)O | -6% | 5%
O=c1[nH]c(=O)c2[nH]c(=O)[nH]c2[nH]1 | -8%&-20% | 11%&-5%
COc1ccccc1-c1[se]c2ccccc2c1I | -10% | ?
CO[C@H]1C[C@H](O[C@@H]2/C(C)=C/C[C@@H]3C[C@@H](C[C@]4(CC[C@H](C)[C@@H](C5CCCCC5)O4)O3)OC(=O)[C@@H]3C=C(C)/C(=N/O)[C@H]4OC/C(=C\C=C\[C@@H]2C)[C@]43O)O[C@@H](C)[C@@H]1O | -13% | 7%
CCCC[C@]12Cc3cc(OC)c(OC)cc3[C@H](O1)c1c(cc(-c3ccccc3)oc1=O)O2 | 3%[8.59 µM] | -25%[8.59 µM]
O=C(Nc1cccc(N2CCC(NCc3cnn(-c4cccc(F)c4)c3)CC2)c1)c1ccncc1 | 7% | 2.5µM*
CN[C@@H]1[C@H](O[C@H]2[C@H](O[C@H]3[C@H](O)[C@@H](O)[C@H](N=C(N)N)[C@@H](O)[C@@H]3N=C(N)N)O[C@@H](C)[C@]2(O)CO)O[C@@H](CO)[C@H](O)[C@H]1O | ? | 6%
CCCCC1=CC2=CC(=O)C(C)(O)C(=O)C2=CO1 (stereo not given) | 8% | -20%
C[N+]1(Cc2ccccc2)CCC(C(=O)OCC2CCCC2)CC1 (stereo not given) | -2% | 14%
CC(=CCO)CCO | 14%[8.59 µM] | 2%[8.59 µM]
Cc1cc(-c2ccnc(-n3ncc(C(=O)NCC4CCCO4)c3C3CC3)n2)c(C)s1 (stereo not given) | -17% | -2%
C=CCOC(=O)N[C@H](C(C(=O)OC)=C(C)NCc1ccccc1)c1ccc2c(c1)OCO2 | -12%[8.59 µM] | ?
COc1ccc(O[C@H]2C=C[C@@H](c3ccccc3)O[C@H]2COC(=O)NCc2cccc3ccccc23)cc1 | 3%[8.59 µM] | -28%[8.59 µM]
CN1CC[C@@]2(C)c3cc(O)ccc3N(C)[C@@H]12 | -20% | -9%
Brc1ccccc1-c1ccccc1 | -13%[107 µM] | 35%[activator][107 µM]
CCCCC1=CC2=CC(=O)C(C)(OC(=O)c3ccco3)C(=O)C2=CO1 (stereo not given) | 2% | -13%
c1cc2c3c(c1)c1c(n3CCNC2)CCCC1 | -30% | ?

Continued:
SMILES | LASV entry inh | MARV entry inh
CN(C)CCN(C)C1CN(C2CCCC2)S(=O)(=O)C1 (stereo not given) | -21% | 3%
CC1C(=O)N(Cc2cn(CC3CCCCC3)nn2)CCS(=O)(=O)N1Cc1ccc(-c2ccc(Cl)c(Cl)c2)cc1 (stereo not given) | . | ?
COc1ccccc1C(=O)N[C@@H]1c2ccccc2C2(CCN(Cc3cnn(C)c3C)CC2)[C@H]1O | -13% | -21%
CC(C)C[C@@H](CC(=O)N[C@@H](CCC(=O)O)CC(=O)O)NC(=O)[C@@H]1CNCC[C@H]1NC(=O)C[C@@H](NC(=O)C[C@H](Cc1c[nH]c2ccccc12)NC(=O)[C@@H]1CCCC[C@H]1N)C(C)C | 2% | 10%
CCC(OC(C)=O)C(CC(C)NC)(c1ccccc1)c1ccccc1 (stereo not given) | 40µM* | 7.9µM*
CCOc1ccc2nc(N3CCCN(CCCn4cccn4)CC3)nc(C)c2c1 | 0% | ?
O=C(c1cnn(-c2nccc(-c3ccccc3F)n2)c1C1CC1)N1CCN(CCO)CC1 | 3% | -29%
Cc1cc(C)c(-c2cc([C@H](C)ON=C[C@@H](C)[C@H](OCc3ccccc3)C(C)C)on2)c(C)c1 | -2%[8.59 µM] | 6%[8.59 µM]
CN(CCO)C(=O)c1cn(C2CCCN(Cc3ccc(C(F)(F)F)cc3)C2)nn1 (stereo not given) | 14% | -17%
CNc1ncnc2ccc(-c3ccccc3OC)cc12 | -6% | 3%
CN1c2cc(O)c(N=NC(N)=O)cc2CC1S(=O)(=O)O (stereo not given) | -1% | -9%
C=C[C@@H]1C[C@@H](C=C)OP(=O)(O[C@@H](C=C)[C@@H](C)C(=O)OC)O1 (stereo not given in full) | 9% | -24%
COCCC(=O)NCC1Cc2cc(Cl)cc(-c3ccc4[nH]ccc4c3)c2O1 (stereo not given) | 7.1µM* | 7.1µM*
Cc1onc(-c2ccccc2)c1C(=O)N[C@@H]1C(=O)N2[C@@H]1SC(C)(C)[C@@H]2C(=O)O | 4% | 4%
COC(=O)CC1C(C)(C)C(O)C2CC3=C4C=C(OC)OC(c5ccoc5)[C@]4(C)CCC3[C@@]1(C)C2=O (stereo not given in full) | -6% | -29%
COc1ccc2c(c1)[C@H](C=Cc1ccccc1)[C@@H]([C@H](O)CO)O2 | -6%[8.59 µM] | 17%[8.59 µM]
COc1ccc(-c2nc(-c3ccccc3)oc2Nc2ccccc2C)cc1 | 10% | 11%
CCCCC(=O)NCCc1c(Cc2ccccc2)[nH]c2ccccc12 | ? | 13%&-15%
O=C(Nc1cc(C(=O)N2CCN(CCO)CC2)c2c(c1)ncn2C1CCCC1)c1ccccc1 | -5% | 14%
COc1ccc([C@H]2C[C@@H](O)[C@H](n3cc(-c4ccc(F)cc4)nn3)CN2CC2CCCCC2)cc1 | -14% | ?

An excerpt from the list above, for reference:
SMILES | LASV entry inh | MARV entry inh
O=C(Nc1cc(C(=O)N2CCN(CCO)CC2)c2c(c1)ncn2C1CCCC1)c1ccccc1 | -5% | 14%
COc1ccc([C@H]2C[C@@H](O)[C@H](n3cc(-c4ccc(F)cc4)nn3)CN2CC2CCCCC2)cc1 | -14% | ?

(next part)
SMILES | LASV entry inh | MARV entry inh
O=C(NN=C1C[C@@H](O)[C@H](O)[C@H]2[C@@H]3C(=O)N(c4cccc(Oc5ccccc5)c4)C(=O)[C@@H]3CC[C@H]12)OCc1ccccc1 | . | 4%[8.59 µM]
COC(=O)C1CCN(Cc2ccc3c(c2)CN(C(=O)c2cc(C)on2)CCO3)CC1 | 0% | -21%
CC[C@]1(c2ccccc2)NC(=O)NC1=O | 1% | -7%
COC(=O)[C@H]1[C@@H](c2ccccc2)NC(=O)N(CCc2cc(OC)c(OC)c(OC)c2)[C@@H]1C | 3%[8.59 µM] | -24%[8.59 µM]
O=C(O)c1cc([N+](=O)[O-])ccc1NCCCc1ccccc1 | 2%&1%&5%&-2% | 33%&8%&22%&54%[activator]
CCN1C(=NCCc2cccnc2)N[C@H](CCc2ccccc2)[C@H](C(=O)OC)[C@H]1C | 1%[8.59 µM] | -16%[8.59 µM]
CCC[C@@H]1NC(=O)[C@@H](NC(C)=O)CSSC[C@@H](C(N)=O)NC(=O)CNC(=O)[C@H](Cc2c[nH]c3ccccc23)NC(=O)[C@H](CCCN=C(N)N)NC(=O)[C@H](Cc2ccc3ccccc3c2)NC(=O)[C@H](Cc2cnc[nH]2)NC(=O)[C@H](CCCN=C(N)N)NC1=O | -3% | ?
COc1ccc2c(c1)C(=O)[C@H](OC(=O)N[C@H]1CCCc3ccccc31)[C@@H](c1ccc(OC)c(Br)c1)O2 | -15% | 11%
CCCCCCCCCCCCCC(=O)O[C@@H]1[C@@H](C)[C@@]2(O)[C@@H](C=C(CO)C[C@]3(O)C(=O)C(C)=C[C@@H]23)[C@@H]2C(C)(C)[C@]12OC(C)=O | -18% | ?
COC(=O)c1c(C(=O)OC)c2c3cc(OC)c(OC)cc3cc([Si](C)(C)C)n2c1C(=O)OC | -30%[8.59 µM] | 24%[8.59 µM]
COc1cc(=O)n2c(c1C(=O)NCc1ccco1)CCN(C(=O)c1ccc(C)c(C)c1)CC2 | 2% | 0%
COc1ccc(NC2=CC(c3ccccc3)N(c3ccc(OC)cc3)C2=O)cc1 (stereo not given) | ? | 1%
COP(=S)(OC)Oc1ccc([N+](=O)[O-])cc1 | ? | 11µM*
CCCCCCCCCCCCCCCC(=O)OC[C@@H](COP(=O)([O-])OCC[N+](C)(C)C)OC(=O)CCCCCCCCCCCCCCC | 2% | 9%
Cc1noc(C)c1-c1nccc(-n2ccnc2)n1 | -8% | -19%
C=C(C)C1CC23C(=O)[C@]4(C(=O)c5ccccc5)C[C@@]5(C)CCC(CC2C1(C)C)(C4=O)[C@@]35OC (stereo not given in full) | -2%[8.59 µM] | 9%[8.59 µM]
COc1ccc2c(c1)O[C@H](c1ccc3c(c1)OCO3)[C@@H](OC(=O)Nc1cc(OC)c(OC)c(OC)c1)C2=O | -21% | -12%
CCCCOCC1CN(Cc2ccccc2OC)S(=O)(=O)c2cc(Cl)ccc2O1 (stereo not given) | -27% | ?
COc1cc2ccc(=O)oc2c2ccoc12 | -3% | 0%
[O]=[Cr](=[O])([OH])[O][Cr](=[O])(=[O])[OH] | -5%&-20% | -1%&-18%

Gathered by group: the entries above with bromine (2)
SMILES | LASV entry inh | MARV entry inh
Brc1ccccc1-c1ccccc1 | -13%[107 µM] | 35%[activator][107 µM]
COc1ccc2c(c1)C(=O)[C@H](OC(=O)N[C@H]1CCCc3ccccc31)[C@@H](c1ccc(OC)c(Br)c1)O2 | -15% | 11%

(next part)
SMILES | LASV entry inh | MARV entry inh
Cc1ccc(-c2ccc(CN3C(C)C(=O)N(Cc4cn(CCC5OCCO5)nn4)CCS3(=O)=O)cc2)cc1 (stereo not given) | 16% | 7%
NCCOB(c1ccccc1)c1ccccc1 | -8%&-3%&-10% | 3%&-26%&8%
COc1ccccc1-c1ccnc(-n2ncc(C(=O)N3CCCCC3c3cccnc3)c2C)n1 (stereo not given) | 19% | -9%
c1ccc(-c2nc(-c3cccc4ccccc34)c(NC3CCCCC3)o2)cc1 | -1% | 8%
Cn1cnnc1Sc1c([N+](=O)[O-])ncn1C | -9% | -3%
CCOC(=O)/C=C1\CC(C(=O)OCC)Oc2ccccc21 (stereo not given) | -5% | 0%
CNc1nc(-c2ccccc2OC)nc2ccccc12 | -14% | ?
COc1cccc([C@@H]2Oc3ccc(OC)cc3C(=O)[C@H]2OC(=O)NC2CCCC2)c1 | 0% | 4%
COc1ccc([C@]23Cc4ccccc4[C@H](O2)C2=C(CCCC2=O)O3)cc1 | -4%[8.59 µM] | 57%[activator][8.59 µM]
O=C(OCc1ccccc1)c1cccnc1 | -24% | 8%
COc1ccc2c(c1)-c1nc(-n3ncc(C(=O)N(C)CC4CCCN(C)C4)c3C)ncc1CC2 (stereo not given) | -5% | ?
COc1cc(OC)cc(-c2sc3ccccc3c(=O)c2I)c1 | ? | 18µM*
C[C@H]1CC[C@H]2C(=O)N(Cc3ccccc3)C[C@H](O)CN2[C@H]1c1cccc(Br)c1 | . | -5%[8.59 µM]
CC(C)[C@@H](CC(=O)N[C@@H]1CCNC[C@H]1C(=O)N[C@H](CC(=O)N[C@@H](CCC(=O)O)CC(=O)O)Cc1c[nH]c2ccccc12)NC(=O)C[C@H](Cc1ccccc1)NC(=O)[C@@H]1CNCC[C@H]1N | -5% | 7%
Nc1cccc2c(=O)[nH]ccc12 | 7% | 0%
COc1ccc(-c2cc(C)cc3c2OC(CNC(=O)c2cc(C(C)C)on2)C3)nn1 (stereo not given) | -12% | -27%
CCN1C(=NCc2ccc3c(c2)OCO3)N[C@@H](c2ccccc2)[C@H](C(=O)OC)[C@H]1C | -11%[8.59 µM] | ?
COc1ccc(O[C@H]2C=C[C@@H](c3ccccc3)O[C@H]2COC(=O)CCC(C)=NO[C@@H](C)c2cc(-c3c(C)cc(C)cc3C)no2)cc1 | -16%[8.59 µM] | 3%[8.59 µM]
CNC[C@H](O)c1ccc(O)c(OC)c1 | -12%[17.8 µM] | 10%[17.8 µM]
CCn1c(-c2ccccc2F)nc2cc(C(=O)NCC3CCOCC3)cc(NC(C)=O)c21 | -23% | -21%

The listing continues.
SMILES | LASV entry inh | MARV entry inh
CC(C)C(O)(C(=O)OC[C@@H]1CC[N+]2([O-])CCCC12)C(C)O (stereo not given in full) | -6% | 32%[activator]
COc1ccccc1/C=C\C(=O)OC[C@@H]1CCCN2CCCC[C@H]12 | 5% | ?
Cc1oc(-c2cccc(NC(=O)C3CCCN(C)C3)c2)nc1CNC(=O)c1coc2c1C(=O)CCC2 (stereo not given) | ? | ?
N#CC(=C(/N)Sc1ccccc1N)/C(C#N)=C(/N)Sc1ccccc1N | ? | 41%[activator]
CCCS(=O)(=O)NCc1c(C)ncc2c1CCN(C(=O)c1ccc(F)c(F)c1)C2 | -9% | -18%
O=c1cc(-c2cc(O)c(O)c(O)c2)oc2cc(O)cc(O)c12 | 6% | 12%
Cc1cccc(Cc2cnc[nH]2)c1C | -19% | 8%
C/C(=C(/CCO)SSC[C@@H]1CCCO1)N(C=O)Cc1cnc(C)nc1N | -12%[17.8 µM] | -13%[17.8 µM]
CC(C)NCC(O)c1ccc(N)c(C#N)c1 (stereo not given) | -14%&3% | 3%&4%
COC(=O)C1=C(C(=O)OC)[C@@H]2N(C)c3ccccc3[C@@]23C[C@@H](CO)N(C(=O)NC2CCCCC2)C3=N1 | -3%[8.59 µM] | -2%[8.59 µM]
CC(C)(C)OC(=O)N1CCCC(C(=O)Nc2ccc(C(=O)NCCc3ccccc3)cc2)C1 (stereo not given) | 7% | 34%[activator]
COC1CC(=C(c2cccs2)c2cccs2)C[N+](C)(C)C1 (stereo not given) | -17% | 4%
